TSHR ag = TSH receptor (human) agonism; P16473; HEK293-CNG-TSHR cells (CNG channel as cAMP sensor), membrane potential dye, cAMP; Potency, µM (top dose mostly 57.1 µM), for the others: at the top dose activation, most hits filed as activators; 73,000 tested, 0.48% active; active = well fitted activation curve of enough size with the parental cells flat; inconclusive = any curve in the parental cells; inactive = parental cells flat and receptor cells flat or falling; also: % of control where 0% means no effect; weak receptor curves with flat parental cells got no call and are not listed
Target sequence (P16473 whole entry, looked up): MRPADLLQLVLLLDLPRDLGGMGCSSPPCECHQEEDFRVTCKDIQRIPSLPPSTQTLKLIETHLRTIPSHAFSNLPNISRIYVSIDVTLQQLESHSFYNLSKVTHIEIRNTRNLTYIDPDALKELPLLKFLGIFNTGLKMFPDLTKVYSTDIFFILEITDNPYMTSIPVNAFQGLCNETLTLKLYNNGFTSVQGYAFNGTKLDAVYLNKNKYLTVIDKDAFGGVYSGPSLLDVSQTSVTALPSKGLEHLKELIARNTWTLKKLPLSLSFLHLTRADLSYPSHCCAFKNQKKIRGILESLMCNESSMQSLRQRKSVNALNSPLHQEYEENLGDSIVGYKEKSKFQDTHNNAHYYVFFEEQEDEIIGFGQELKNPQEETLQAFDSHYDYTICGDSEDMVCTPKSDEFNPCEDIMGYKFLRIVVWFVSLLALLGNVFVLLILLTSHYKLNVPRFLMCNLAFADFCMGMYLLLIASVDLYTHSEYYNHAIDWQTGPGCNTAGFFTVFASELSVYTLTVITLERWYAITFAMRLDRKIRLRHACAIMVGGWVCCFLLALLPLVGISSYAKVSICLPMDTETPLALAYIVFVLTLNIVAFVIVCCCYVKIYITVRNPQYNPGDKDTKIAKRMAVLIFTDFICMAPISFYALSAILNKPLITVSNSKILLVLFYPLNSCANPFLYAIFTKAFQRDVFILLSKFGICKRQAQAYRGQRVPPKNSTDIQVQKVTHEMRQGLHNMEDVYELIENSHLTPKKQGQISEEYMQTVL
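HEK 293 cells stably expressing TSHR and a cAMP-gated CNG channel; parental CNG-only cells as counterscreen. Cells preloaded 60 min with membrane potential dye plus 100 uM RO 20-1724, then compound 30 min; fluorescence read at 590 nm.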
AID923 = qHTS Assay for Allosteric/Competitive Inhibitors of Caspase-1: Spectroscopic Profiling in AFC Spectral Region | compound fluorescence, AFC spectral region (405/520 nm); almost no hit is shown here | Potency, µM (series often up to 57.5 µM), for the others: at the top dose fluorescence increase, most hits filed as activators | 75,000 tested, 1.1% active | AID 923, 2007; active = well fitted activation curve with a large enough effect; inconclusive = small, poorly fitted or top-dose-only effect;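 also: 0% is about no effect; scaled to a free AFC standard on each plate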
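Baseline compound fluorescence (AFC region, 405 nm ex/520 nm em) taken from the intercept of kinetic reads with 50 nM caspase-1 and 5 uM Ac-WEHD-AFC; normalized to an on-plate AFC standard curve; compounds titrated up to 57 uM.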
The depositor's hits bear a star; ? = inconclusive; nt = not tested or not shown; & = joins results of further samples. Potency is read from the fitted curve at half-maximal effect.

| Structure | TSHR ag | AID923 |
| --- | --- | --- |
| N#Cc1ccc(C23CC4(C2)[C@H](CN(CC2CCCCC2)[C@@H]4c2ccccc2)C3c2ccc(C(F)(F)F)cc2)cc1 (stereo partly drawn) | nt | 1.1% |
| CCOc1ccc(N(CC(=O)Nc2cccc(F)c2)S(=O)(=O)c2c(C)noc2C)cc1 | nt | -1.9% |
| CCCSc1nnc(N2C(=O)CC(c3ccsc3)C3=C2CCCC3=O)s1 (stereo not drawn) | nt | -0.5% |
| CC(=O)N1CCc2c(sc(NC(=O)C3CC3)c2-c2nc3ccccc3s2)C1 | nt | 1.6% |
| C=CCn1c2ccccc2c2nnc(SCN3C(=O)c4ccccc4C3=O)nc21 | nt | -0.9% |
| CCC(CC)C(=O)NCCc1cc2ccc(C)c(C)c2[nH]c1=O | nt | -1.0% |
| CC1(C)SC2C(NC(=O)Cc3ccccc3)C(=O)N2C1C(=O)O (stereo not drawn) | nt | -2.2% |
| O=c1cc(-c2cc(O)c(O)c(O)c2)oc2cc(O)cc(O)c12 | nt | 1.0% |
| CCn1c(C(=O)NC(C)c2ccc3c(c2)OCCO3)cc2sccc21 (stereo not drawn) | nt | -0.5% |
| N#Cc1ccc(C23CC4(C2)[C@H](CN(Cc2ccc(C(F)(F)F)cc2)[C@@H]4c2ccccc2)C3c2ccc(C(F)(F)F)cc2)cc1 (stereo partly drawn) | nt | 1.1% |
| COC(=O)CC1C(C)(C)C(O)C2CC3=C4C=C(OC)OC(c5ccoc5)[C@]4(C)CCC3[C@@]1(C)C2=O (stereo partly drawn) | nt | -0.6% |
| CCOC(=O)CCSCC(=O)Nc1nnc(C)s1 | nt | -2.6% |
| CCCCC(=O)NCCc1c(Cc2ccccc2)[nH]c2ccccc12 | nt | -0.5% |
| CC1CCCN(c2nc3c(c(=O)[nH]c(=O)n3C)n2CCCc2ccccc2)C1 (stereo not drawn) | nt | 0.9% |
| O=C(CCBr)N1CCN(C(=O)CCBr)CC1 | nt | -3.7% |

Next part
| Structure | TSHR ag | AID923 |
| --- | --- | --- |
| CC12CCCC(O)(C1)C1CC(C)(C)C1CC2 (stereo not drawn) | nt | -3.0% |
| Cc1cccc(C(=O)O)c1O | nt | -0.6% |
| CCCCCN=C(N)N/N=C/c1c[nH]c2ccc(OC)cc12 | nt | 0.1%&0.6% |
| CC1(C)SC2C(NC(=O)C(NC(=O)N3CCNC3=O)c3ccccc3)C(=O)N2C1C(=O)O (stereo not drawn) | nt | -2.3% |
| O=C(/C=C/c1ccccc1)c1ccc(O[C@H]2OC(CO)C(O)C(O)C2O)cc1O (stereo partly drawn) | nt | -1.9% |
| OCc1ccccc1O[C@H]1OC(CO)C(O)C(O)C1O (stereo partly drawn) | nt | -0.5% |
| C[C@@H]1OC(OC2C(OC3CC[C@@]4(C)C5CC=C6C7CC(C)(C)CC[C@@]7(C(=O)O)CCC6(C)C5(C)CCC4[C@]3(C)CO)OCC(O)C2O)C(O)C(O)C1O (stereo partly drawn) | nt | 0.1% |
| Cn1c(=O)c(C(=O)COC(=O)c2cc(-c3ccco3)nc3ccccc23)c(N)n(CC2CC2)c1=O | nt | 6.3% |
| Cc1cn(C2CCC(CO)O2)c(=O)[nH]c1=O (stereo not drawn) | nt | -0.2% |
| COc1ccc(-c2cc(=O)c3ccccc3o2)cc1OC | nt | 9.7% |
| COC1C=CO[C@@]2(C)Oc3c(C)c(O)c4c(O)c(c5c(nc6cc(C)ccn65)c4c3C2=O)NC(=O)/C(C)=C\C=CC(C)C(O)[C@@H](C)C(O)C(C)[C@@H](OC(C)=O)C1C (stereo partly drawn) | nt | -1.0% |
| NC(CCC(=O)NC(CCSC(CC(=O)O)C(=O)O)C(=O)NCC(=O)O)C(=O)O (stereo not drawn) | nt | -0.5% |
| COc1cccc2c1C(=O)CC(c1ccccc1)O2 (stereo not drawn) | nt | -0.8% |
| CCCc1cc(OC)c2c(c1)OCO2 | nt | -1.2% |
| CC[C@H](C)C(=O)O[C@H]1CCC=C2C=C[C@H](C)[C@H](CC[C@@H]3C[C@H](O)CC(=O)O3)[C@H]21 | nt | -4.2% |

Single records (already shown). Screens in order: TSHR ag, AID923
CC[C@H](C)C(=O)O[C@H]1CCC=C2C=C[C@H](C)[C@H](CC[C@@H]3C[C@H](O)CC(=O)O3)[C@H]21 is entered as nt, -4.2%
CCCc1cc(OC)c2c(c1)OCO2 is entered as nt, -1.2%
COc1cccc2c1C(=O)CC(c1ccccc1)O2 (stereo not drawn) is entered as nt, -0.8%
OCc1ccccc1O[C@H]1OC(CO)C(O)C(O)C1O (stereo partly drawn) is entered as nt, -0.5%
Cn1c(=O)c(C(=O)COC(=O)c2cc(-c3ccco3)nc3ccccc23)c(N)n(CC2CC2)c1=O is entered as nt, 6.3%

Carrying on.
| Structure | TSHR ag | AID923 |
| --- | --- | --- |
| CCC1=C2CC[C@H]3C(=O)N(CC)C(=O)[C@H]3[C@H]2[C@@]2(Cc3ccccc3)C(=NCCOC)OC(=O)N2C1=O | nt | 3.5% |
| Clc1cc(NCc2cccs2)ccc1N1CCOCC1 | nt | 4.1% |
| Cn1c(-c2nc(-c3ccccc3)cs2)nc2ccccc21 | nt | 0.1% |
| COC1(C)CCC2OC2(C)CCC2C1CC2(C)C (stereo not drawn) | nt | -1.2% |
| O=C1C=CC2=C3c4cc(O)c(O)cc4C[C@]3(O)COC2=C1 | nt | 3.8% |
| O=c1c2ccccc2nc(N2CCN(c3ccccc3)CC2)n1Cc1ccccc1 | nt | -0.9% |
| CO[C@]12CC(COC(=O)c3cncc(Br)c3)CN(C)[C@@H]1Cc1cn(C)c3cccc2c13 (stereo partly drawn) | nt | -1.0% |
| CCC1=C2CC[C@H]3C(=O)NC(=O)[C@H]3[C@H]2[C@@]2(C)C(=NCCOC)OC(=O)N2C1=O | nt | 1.0% |
| CC(C)C[C@@H](CC(=O)N[C@@H](CCC(=O)O)CC(=O)O)NC(=O)[C@@H]1CNCC[C@H]1NC(=O)C[C@@H](NC(=O)C[C@H](Cc1c[nH]c2ccccc12)NC(=O)[C@@H]1CNCC[C@H]1N)C(C)C | 10% | nt |
| NCCC[C@@H](CC(=O)N[C@@H]1CCNC[C@H]1C(=O)N[C@H](CC(=O)N[C@@H](CCC(=O)O)CC(=O)O)Cc1c[nH]c2ccccc12)NC(=O)C[C@H](Cc1ccccc1)NC(=O)[C@@H]1CNCC[C@H]1N | 3% | nt |
| CC(C)[C@@H](CC(=O)N[C@@H]1CCNC[C@H]1C(=O)N[C@H](CC(=O)N[C@@H](CCC(=O)O)CC(=O)O)Cc1ccccc1)NC(=O)C[C@H](Cc1c[nH]c2ccccc12)NC(=O)[C@@H]1CNCC[C@H]1N | ? | nt |
| CC(C)C[C@@H](CC(=O)N[C@@H](CCC(=O)O)CC(=O)O)NC(=O)[C@@H]1CNCC[C@H]1NC(=O)C[C@H](CCCN)NC(=O)C[C@H](Cc1ccccc1)NC(=O)[C@@H]1CNCC[C@H]1N | 5% | nt |
| CC(C)C[C@@H](CC(=O)N[C@@H](CCC(=O)O)CC(=O)O)NC(=O)[C@@H]1CNCC[C@H]1NC(=O)C[C@H](CCCN)NC(=O)C[C@H](CO)NC(=O)[C@@H]1CCCC[C@H]1N | 6% | nt |
| NCCC[C@@H](CC(=O)N[C@@H]1CCNC[C@H]1C(=O)N[C@H](CC(=O)N[C@@H](CCC(=O)O)CC(=O)O)Cc1ccccc1)NC(=O)C[C@H](Cc1c[nH]c2ccccc12)NC(=O)[C@@H]1CNCC[C@H]1N | ? | nt |
| CC(C)C[C@@H](CC(=O)N[C@@H](CCC(=O)O)CC(=O)O)NC(=O)[C@@H]1CNCC[C@H]1NC(=O)C[C@H](CCCN)NC(=O)C[C@H](Cc1c[nH]c2ccccc12)NC(=O)[C@@H]1CCCC[C@H]1N | 6% | nt |

(more compounds)
| Structure | TSHR ag | AID923 |
| --- | --- | --- |
| C=C/C(=C\C)C[C@@H](CC(=O)N[C@@H](CCC(=O)O)CC(=O)O)NC(=O)[C@@H]1CNCC[C@H]1NC(=O)C[C@@H](NC(=O)C[C@H](Cc1ccccc1)NC(=O)[C@@H]1CCCC[C@H]1N)C(C)C | 5% | nt |
| CC(C)C[C@@H](CC(=O)N[C@H](CC(=O)N[C@@H]1CCCC[C@H]1C(=O)N[C@H](CC(=O)N[C@@H](CCC(=O)O)CC(=O)O)Cc1ccccc1)C(C)C)NC(=O)[C@@H]1CNCC[C@H]1N | 8% | nt |
| NCCC[C@@H](CC(=O)N[C@@H]1CCCC[C@H]1C(=O)N[C@H](CC(=O)N[C@@H](CCC(=O)O)CC(=O)O)Cc1c[nH]c2ccccc12)NC(=O)C[C@H](Cc1ccccc1)NC(=O)[C@@H]1CNCC[C@H]1N | 4% | nt |
| CC(C)C[C@@H](CC(=O)N[C@@H](CCC(=O)O)CC(=O)O)NC(=O)[C@@H]1CNCC[C@H]1NC(=O)C[C@H](CCCN)NC(=O)C[C@H](Cc1c[nH]c2ccccc12)NC(=O)[C@@H]1CNCC[C@H]1N | ? | nt |
| NCCC[C@@H](CC(=O)N[C@@H]1CCCC[C@H]1C(=O)N[C@H](CC(=O)N[C@@H](CCC(=O)O)CC(=O)O)Cc1ccccc1)NC(=O)C[C@H](Cc1c[nH]c2ccccc12)NC(=O)[C@@H]1CCCC[C@H]1N | 7% | nt |
| CC(C)C[C@@H](CC(=O)N[C@H](CC(=O)N[C@@H]1CCNC[C@H]1C(=O)N[C@H](CC(=O)N[C@@H](CCC(=O)O)CC(=O)O)CC(C)C)C(C)C)NC(=O)[C@@H]1CNCC[C@H]1N | 5% | nt |
| CC(C)C[C@@H](CC(=O)N[C@@H](CCC(=O)O)CC(=O)O)NC(=O)[C@@H]1CNCC[C@H]1NC(=O)C[C@@H](NC(=O)C[C@H](Cc1ccccc1)NC(=O)[C@@H]1CCCC[C@H]1N)C(C)C | 2% | nt |
| CC(C)C[C@@H](CC(=O)N[C@@H](CCC(=O)O)CC(=O)O)NC(=O)[C@@H]1CNCC[C@H]1NC(=O)C[C@H](CCCN)NC(=O)C[C@H](Cc1ccccc1)NC(=O)[C@@H]1CCCC[C@H]1N | 5% | nt |
| CC(C)[C@@H](CC(=O)N[C@@H]1CCCC[C@H]1C(=O)N[C@H](CC(=O)N[C@@H](CCC(=O)O)CC(=O)O)Cc1ccccc1)NC(=O)C[C@H](Cc1ccccc1)NC(=O)[C@@H]1CCCC[C@H]1N | 2% | nt |
| CC(C)C[C@@H](CC(=O)N[C@H](CC(=O)N[C@@H]1CCNC[C@H]1C(=O)N[C@H](CC(=O)N[C@@H](CCC(=O)O)CC(=O)O)Cc1c[nH]c2ccccc12)C(C)C)NC(=O)[C@@H]1CNCC[C@H]1N | 6% | nt |
| CC(C)C[C@@H](CC(=O)N[C@@H](CCC(=O)O)CC(=O)O)NC(=O)[C@@H]1CNCC[C@H]1NC(=O)C[C@@H](NC(=O)C[C@H](Cc1c[nH]c2ccccc12)NC(=O)[C@@H]1CCCC[C@H]1N)C(C)C | 3% | nt |
| NCCC[C@@H](CC(=O)N[C@@H]1CCNC[C@H]1C(=O)N[C@H](CC(=O)N[C@@H](CCC(=O)O)CC(=O)O)Cc1ccccc1)NC(=O)C[C@H](CO)NC(=O)[C@@H]1CNCC[C@H]1N | ? | nt |
| NCCC[C@@H](CC(=O)N[C@@H]1CCNC[C@H]1C(=O)N[C@H](CC(=O)N[C@@H](CCC(=O)O)CC(=O)O)Cc1c[nH]c2ccccc12)NC(=O)C[C@H](CO)NC(=O)[C@@H]1CCCC[C@H]1N | 4% | nt |
| CC(C)[C@@H](CC(=O)N[C@@H]1CCNC[C@H]1C(=O)N[C@H](CC(=O)N[C@@H](CCC(=O)O)CC(=O)O)Cc1ccccc1)NC(=O)C[C@H](CO)NC(=O)[C@@H]1CNCC[C@H]1N | 6% | nt |
| CC(C)[C@@H](CC(=O)N[C@@H]1CCNC[C@H]1C(=O)N[C@H](CC(=O)N[C@@H](CCC(=O)O)CC(=O)O)Cc1c[nH]c2ccccc12)NC(=O)C[C@H](Cc1c[nH]c2ccccc12)NC(=O)[C@@H]1CNCC[C@H]1N | ? | nt |
| NCCC[C@@H](CC(=O)N[C@@H]1CCCC[C@H]1C(=O)N[C@H](CC(=O)N[C@@H](CCC(=O)O)CC(=O)O)Cc1c[nH]c2ccccc12)NC(=O)C[C@H](Cc1ccccc1)NC(=O)[C@@H]1CCCC[C@H]1N | 1% | nt |

Compound activity from PubChem BioAssay.

Only part of the results is shown; count on the stated rates, not on these rows.
